TRPML1 agonist = qHTS for Agonists of the Human Mucolipin Transient Receptor Potential 1 (TRPML1) | actives 0.12% (n = 410,000) | activation, % (concentration not given with the values) | TRPML1-expressing cells, Ca2+ dye fluorescence, FDSS; host cell line not named in the record; reference of the full effect not given here | Mucolipin-1 (Homo sapiens), Q9GZU1 | AID 624414, 2012; in the data active = activation above about 50%; inconclusive = about 30% to 50%; inactive = below about 30%; further: 0% is about no effect; the text of the record puts the active cut at 80%
Target sequence (Q9GZU1 whole entry, looked up): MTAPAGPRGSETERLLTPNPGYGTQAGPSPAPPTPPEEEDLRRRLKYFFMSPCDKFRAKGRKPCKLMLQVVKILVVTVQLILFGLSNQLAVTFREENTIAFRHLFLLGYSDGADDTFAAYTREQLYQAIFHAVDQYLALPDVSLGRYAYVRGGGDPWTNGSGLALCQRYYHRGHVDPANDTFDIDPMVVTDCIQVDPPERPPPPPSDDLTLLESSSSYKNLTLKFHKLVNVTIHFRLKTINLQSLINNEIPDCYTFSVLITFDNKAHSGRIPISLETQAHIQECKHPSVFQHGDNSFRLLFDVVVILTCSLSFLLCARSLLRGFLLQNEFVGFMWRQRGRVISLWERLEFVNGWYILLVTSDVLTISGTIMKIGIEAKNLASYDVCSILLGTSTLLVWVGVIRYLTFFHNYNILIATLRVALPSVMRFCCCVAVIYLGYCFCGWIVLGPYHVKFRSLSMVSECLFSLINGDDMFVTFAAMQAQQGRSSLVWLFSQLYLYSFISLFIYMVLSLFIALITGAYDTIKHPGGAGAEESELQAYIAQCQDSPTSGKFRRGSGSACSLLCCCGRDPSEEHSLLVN
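Calcium fluorescence on an FDSS kinetic reader gave the read-out. Tet-induced TRPML1-DL cells were plated overnight, dye-loaded (Ca8 with quencher, 45-90 min, room temperature, dark), then read 110 s after compound addition, and again 110 s after 4uM final 54-4 (EC80).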
D2 ag = Beta-Arrestin HTS for Positive Allosteric Modulators of the Human D2 Dopamine Receptor: Agonists | activation, % (test concentration not listed) | D(2) dopamine receptor (Homo sapiens), P14416 | actives 0.084% (n = 360,000) | DiscoveRx PathHunter D2 beta-arrestin, luminescence, 90 min; 100% = 57 uM dopamine signal; in the data active = activation above about 40%; inconclusive = about 15% to 40%; inactive = below about 15%; further: compound concentration not given in the record; the text of the record calls up to 30% inactive
Target sequence (P14416 whole entry, looked up): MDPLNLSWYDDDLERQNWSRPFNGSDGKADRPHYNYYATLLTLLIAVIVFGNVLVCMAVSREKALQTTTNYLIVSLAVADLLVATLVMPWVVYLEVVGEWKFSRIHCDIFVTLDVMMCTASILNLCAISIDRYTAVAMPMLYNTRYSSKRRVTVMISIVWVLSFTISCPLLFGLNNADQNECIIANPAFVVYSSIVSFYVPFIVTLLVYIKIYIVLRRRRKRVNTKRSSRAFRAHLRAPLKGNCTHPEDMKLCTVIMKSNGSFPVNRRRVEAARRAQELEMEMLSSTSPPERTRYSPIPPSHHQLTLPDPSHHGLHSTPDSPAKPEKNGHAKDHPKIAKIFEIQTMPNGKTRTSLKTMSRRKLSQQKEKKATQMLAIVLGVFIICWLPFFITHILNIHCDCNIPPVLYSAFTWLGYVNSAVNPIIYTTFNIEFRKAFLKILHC
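DiscoveRx PathHunter D2 beta-arrestin cells (2,100/well) attached overnight, then compound-stimulated 90 min at 37 C in HBSS/10 mM HEPES/0.1% Tween-20 buffer; beta-galactosidase complementation read by luminescence after 1 h at ambient temperature. Dopamine 57 uM final (EC100) as control.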
PINK1 modulator = A Quantitative High throughput Screen to Identify Chemical Modulators of PINK1 Expression; actives 0.2% (n = 410,000); Potency, µM (series often up to 76.6 µM), for the others: at the top dose activation (PINK1 increase), most hits filed as activators; PINK1 immunofluorescence, high-content cytometry, 24 h; active = well fitted activation curve with a large enough effect; inconclusive = small, poorly fitted or top-dose-only effect; inactive = flat fitted curve, though single readings scatter; cell line not stated here;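 further: potency means the concentration at half of the fitted maximal effect; % of control where 0% means no effect; nearly all actives have a fitted effect of over 65% in size; a mitochondrial uncoupler was the plate control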
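PINK1 protein, normally rapidly degraded, was detected by immunofluorescence after 24 hour compound treatment of a stable cell line. Titration data (5 concentrations) came from laser-scanning cytometry, with CCCP-treated wells as controls.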
D2 potentiator = Beta-Arrestin HTS for Positive Allosteric Modulators of the Human D2 Dopamine Receptor: Potentiators. D(2) dopamine receptor (Homo sapiens), P14416. potentiation, % (no concentration beside the values). actives 0.23% (n = 360,000). AID 624464, 2012. DiscoveRx D2 beta-arrestin cells, luminescence, 90 min; 100% = 57 uM dopamine signal; active = potentiation of 50% or more; inconclusive = 30% to 50%; inactive = 30% or less;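 further: compound concentration not given in the record; tested on top of an EC20 dose of dopamine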
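PathHunter beta-arrestin assay in DiscoveRx D2 cells. Compounds were added with an EC20 of dopamine (50 nM final) for 90 min at 37 deg C. Luminescence was read 1 h after detection reagent, with 57 uM dopamine as the EC100 control.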
CtBP-E1A inh = qHTS Assay for Inhibitors of the CtBP/E1A Interaction. CtBP / adenovirus E1A interaction (AlphaScreen). AlphaScreen GST-E1A/His-CtBP binding, 1536-well; stronger effect = lower value; control for the full effect not named in the record. activity change, % (concentration not given with the values). actives 0.49% (n = 340,000); in the data active means activity change below about -65%; inconclusive means about -30% to -65%; inactive means above about -30%; further: on the % scale 0 is the no-effect control and ±100 the full control effect
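Steps: dispense buffer (Tris pH 8.0, NaCl 300 mM, TCEP 1 mM, BSA, Tween 20); add 5X protein mix (GST-E1A, His-CtBP, 125 nM each); pin 23 nL compound; 2 h at 37 °C, dark; add 5X beads (50 ug/mL); 1 h; read.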
Six1-Eya2 blk = qHTS Assay for Inhibitors of the Six1/Eya2 Interaction. AlphaScreen GST-Six1/His-Eya2 binding, biochemical; stronger effect = lower value; control for the full effect not named in the record. activity change, % (no concentration beside the values). actives 0.56% (n = 360,000). AID 651725, 2012; in the data active = activity change below about -65%; inconclusive = about -30% to -65%; inactive = above about -30%; further: on the % scale 0 is the no-effect control and ±100 the full control effect; compound concentration not given in the record
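GST-Six1 + His-Eya2 (5X stock: 250/500 nM); Tris pH 8.0, 300 mM NaCl, 0.05% BSA, 0.02% Tween 20; GSH donor/Ni acceptor beads; 1 h 37 °C dark; AlphaScreen readout.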
The depositor's hits bear a star; [ ] = another dose, or the depositor's remark.

How did CCOC(=O)CNS(=O)(=O)c1ccc(S(=O)(=O)N2CCCC2)cc1 do in these assays?
TRPML1 agonist: 0.1; D2 ag: 1.4; D2 potentiator: 1.9; CtBP-E1A inh: 7.0; Six1-Eya2 blk: 4.8

How did CCCCCCNC(=O)Nc1ccccc1 do in these assays?
TRPML1 agonist: -0.4; D2 ag: -0.9; PINK1 modulator: -4.7%[38.3 µM]; D2 potentiator: -11.5; CtBP-E1A inh: -5.9; Six1-Eya2 blk: 0.9

What do the screens show for `Cn1c2ccccc2c2cc(/C=C(\NC(=O)c3ccccc3)C(=O)O)ccc21`?
TRPML1 agonist: -0.8; D2 ag: 1.3; PINK1 modulator: 0.2%; D2 potentiator: 5.3; CtBP-E1A inh: 0.0; Six1-Eya2 blk: 11.4

How did O=C(c1cc([N+](=O)[O-])ccc1N1CCCCC1)N1CCc2ccccc21 do in these assays?
TRPML1 agonist: 1.3; D2 ag: -1.9; PINK1 modulator: 7.0%; D2 potentiator: -3.0; CtBP-E1A inh: -5.6; Six1-Eya2 blk: -19.8

What do the screens show for `CCCc1ccc2oc(C(=O)NCCc3cnn(C)c3)c(C)c2c1`?
TRPML1 agonist: 3.7; D2 ag: 0.7; PINK1 modulator: inconclusive; D2 potentiator: 4.2; CtBP-E1A inh: 0.0; Six1-Eya2 blk: 0.6

What do the screens show for `O=C(NC1CCC1)C1CCC(=O)N(Cc2ccc(Cl)cc2)C1` (stereo not given)?
TRPML1 agonist: -0.8; D2 ag: -1.0; PINK1 modulator: -1.4%; D2 potentiator: -8.2; CtBP-E1A inh: 3.2; Six1-Eya2 blk: -3.1

What do the screens show for `COc1ccc(C(=O)NNC(=O)CN(C)S(=O)(=O)c2ccc(Cl)cc2)c(OC)c1OC`?
TRPML1 agonist: -0.6; D2 ag: -7.8; PINK1 modulator: -0.4%; D2 potentiator: -2.0; CtBP-E1A inh: 0.9; Six1-Eya2 blk: 2.2

Results for CCN(C(=O)COC(=O)c1c(C)nn(-c2ccccc2)c1C)C1CCS(=O)(=O)C1 (stereo not given) ?
TRPML1 agonist: -0.6; D2 ag: 1.2; PINK1 modulator: 1.6%; D2 potentiator: -4.0; CtBP-E1A inh: 3.6; Six1-Eya2 blk: 9.1

Results for Cc1cccc(C)c1-n1c(C)cc(/C=C2\NC(=O)NC2=O)c1C ?
TRPML1 agonist: 0.4; D2 ag: 0.1; PINK1 modulator: -1.3%[38.3 µM]; D2 potentiator: -16.1; CtBP-E1A inh: -5.3; Six1-Eya2 blk: -7.3

How did COc1ccc2c(COC(=O)CNS(=O)(=O)c3ccccc3)cc(=O)oc2c1 do in these assays?
TRPML1 agonist: -0.9; D2 ag: 12.7; PINK1 modulator: 1.0%; D2 potentiator: -2.2; CtBP-E1A inh: -7.1; Six1-Eya2 blk: -2.3

What do the screens show for `O=C(O)/C=C\C(=O)Nc1ccccc1C(=O)N1CCC(O)(c2ccc(Cl)cc2)CC1`?
TRPML1 agonist: 0.0; D2 ag: -4.3; PINK1 modulator: 4.4%; D2 potentiator: -3.0; CtBP-E1A inh: -1.2; Six1-Eya2 blk: -5.4

How did CC(NC(=O)Cn1cnnn1)C12CC3CC(CC(C3)C1)C2 (stereo not given) do in these assays?
TRPML1 agonist: -0.3; D2 ag: -4.1; PINK1 modulator: -1.6%; D2 potentiator: -9.1; CtBP-E1A inh: 3.0; Six1-Eya2 blk: 3.5

How did CC(=O)Nc1ccc(-c2nnc(SCc3ccccc3C#N)n2C)cc1 do in these assays?
TRPML1 agonist: -0.1; D2 ag: 0.2; D2 potentiator: -1.9; CtBP-E1A inh: 4.1; Six1-Eya2 blk: 0.8

What do the screens show for `COc1cc2c(C(=O)O)c(C)n(C)c2c2ccccc12`?
TRPML1 agonist: -0.1; D2 ag: -4.3; PINK1 modulator: -1.0%; D2 potentiator: -5.5; CtBP-E1A inh: 5.7; Six1-Eya2 blk: -12.2

How did COc1ccc(N2C(=O)C(CC(=O)Nc3ccc(F)cc3)N(CCc3cccs3)C2=O)cc1 (stereo not given) do in these assays?
TRPML1 agonist: -0.7; D2 ag: -8.0; PINK1 modulator: 0.1%; D2 potentiator: -1.1; CtBP-E1A inh: -3.6; Six1-Eya2 blk: 4.7

What do the screens show for `O=C1CN(CN2CCCCC2)C(=O)CN1CN1CCCCC1`?
TRPML1 agonist: -0.2; D2 ag: -2.5; PINK1 modulator: 0.1%; D2 potentiator: -4.3; CtBP-E1A inh: 7.6; Six1-Eya2 blk: 0.0

What do the screens show for `CCn1cc(/C=C(\NC(=O)c2ccccc2F)C(=O)NCCCN2CCOCC2)c2ccccc21`?
TRPML1 agonist: -0.6; D2 ag: -1.8; PINK1 modulator: 0.0%; D2 potentiator: -13.9; CtBP-E1A inh: 2.9; Six1-Eya2 blk: 1.9

Results for CC(=O)Nc1ccc(C(=O)Nc2nc(-c3ccccn3)cs2)cc1 ?
TRPML1 agonist: 0.3; D2 ag: 6.1; PINK1 modulator: 2.4%; D2 potentiator: -5.4; CtBP-E1A inh: -90.9*; Six1-Eya2 blk: -81.4*

How did O=c1oc2cc(Oc3ccc(C(F)(F)F)cc3[N+](=O)[O-])ccc2c2c1CCCC2 do in these assays?
TRPML1 agonist: -0.2; D2 ag: -1.7; PINK1 modulator: 0.9%; D2 potentiator: -11.5; CtBP-E1A inh: -0.1; Six1-Eya2 blk: -4.0

Results for CN1C(=O)NC(NC(=O)C2CCCCC2)(C(F)(F)F)C1=O (stereo not given) ?
TRPML1 agonist: -0.4; D2 ag: -4.2; PINK1 modulator: -1.1%; D2 potentiator: -10.4; CtBP-E1A inh: -0.5; Six1-Eya2 blk: 8.4

How did Clc1ccc(Cn2nnc(-c3ccccc3)n2)cc1 do in these assays?
TRPML1 agonist: -0.4; D2 ag: -0.7; PINK1 modulator: -0.2%; D2 potentiator: -4.5; CtBP-E1A inh: 20.4; Six1-Eya2 blk: 48.4

Results for O=C(O)CSc1c2ccccc2cc2ccccc12 ?
TRPML1 agonist: 0.1; D2 ag: -7.2; PINK1 modulator: 1.4%; D2 potentiator: -7.4; CtBP-E1A inh: -7.0; Six1-Eya2 blk: -5.1

What do the screens show for `Cc1ccn(CC(C)C(=O)O)n1` (stereo not given)?
TRPML1 agonist: -0.4; D2 ag: -3.3; PINK1 modulator: 1.5%; D2 potentiator: -4.5; CtBP-E1A inh: 0.5; Six1-Eya2 blk: 3.5

What do the screens show for `CCNc1nc2ccccc2[nH]1`?
TRPML1 agonist: -0.4; D2 ag: 1.0; PINK1 modulator: 0.5%; D2 potentiator: inconclusive; CtBP-E1A inh: 2.9; Six1-Eya2 blk: 2.5

Results for Cc1cc(C(=O)Nc2ccon2)c(C)o1 ?
TRPML1 agonist: -0.2; D2 ag: -1.2; PINK1 modulator: 1.0%; D2 potentiator: -4.5; CtBP-E1A inh: 2.2; Six1-Eya2 blk: -4.2

What do the screens show for `Cc1ccccc1N=C1NC(=O)/C(=C/c2cccn2C)S1`?
TRPML1 agonist: 3.0; D2 ag: -3.3; PINK1 modulator: 4.5%; D2 potentiator: -12.3; Six1-Eya2 blk: -0.9

How did CCOC(=O)c1c2ccc(OCC(=O)N/N=C/c3ccc(C)cc3)cc2n2ccccc12 do in these assays?
TRPML1 agonist: 0.4; D2 ag: -4.1; PINK1 modulator: 19.6%; D2 potentiator: 0.5; CtBP-E1A inh: -1.6; Six1-Eya2 blk: -0.3

Results for O=C(Cn1c(=S)[nH]c2ccccc2c1=O)N1CCN(c2ccc(F)cc2)CC1 ?
TRPML1 agonist: 0.2; D2 ag: 1.7; PINK1 modulator: 3.3%; D2 potentiator: -2.9; CtBP-E1A inh: -17.1; Six1-Eya2 blk: -8.7

Results for Cc1cc(NC(=O)CSc2n[nH]c(-c3cccs3)n2)no1 ?
TRPML1 agonist: -0.6; D2 ag: -1.1; PINK1 modulator: 0.1%[38.3 µM]; D2 potentiator: -16.8; CtBP-E1A inh: 3.0; Six1-Eya2 blk: -2.3

How did O=[N+]([O-])c1cc([N+](=O)[O-])c2cc(-c3cccnc3)[nH]c2c1 do in these assays?
TRPML1 agonist: 0.4; D2 ag: 11.3; PINK1 modulator: 3.9%; D2 potentiator: 3.3; CtBP-E1A inh: -1.9; Six1-Eya2 blk: -1.9

Results for C=CCOC(=O)/C(=C\c1ccccc1)NC(=O)c1ccco1 ?
TRPML1 agonist: -0.8; D2 ag: -1.3; PINK1 modulator: -1.6%; D2 potentiator: -10.5; CtBP-E1A inh: -9.0; Six1-Eya2 blk: -6.9

How did O=C(Nc1ccccc1Cl)C1(c2ccccc2)CC1(Cl)Cl (stereo not given) do in these assays?
TRPML1 agonist: 3.0; D2 ag: -1.6; PINK1 modulator: 5.8%; D2 potentiator: -12.1; CtBP-E1A inh: 5.9; Six1-Eya2 blk: 12.2

How did COc1cccc(NC(=O)c2oc3ccccc3c2NC(=O)c2ccc3c(c2)OCO3)c1 do in these assays?
TRPML1 agonist: 1.9; D2 ag: -4.0; PINK1 modulator: 16.7%[38.3 µM]; D2 potentiator: -5.9; CtBP-E1A inh: 9.1; Six1-Eya2 blk: 3.5

What do the screens show for `C/C=C(\C)CN1CCC(n2nccc2NC(=O)CCCc2ccccc2)CC1`?
TRPML1 agonist: 0.0; D2 ag: -5.8; PINK1 modulator: 0.0%; D2 potentiator: -24.3; CtBP-E1A inh: 9.3; Six1-Eya2 blk: 1.3

Results for COc1ccc(CCNC(=S)NC(=O)c2ccccc2)cc1C ?
TRPML1 agonist: 1.9; D2 ag: -1.1; PINK1 modulator: 5.2%; D2 potentiator: -3.1; CtBP-E1A inh: -8.2; Six1-Eya2 blk: -9.2

What do the screens show for `COc1cc(/C=C(\C#N)C(=O)NCc2cccs2)ccc1O`?
TRPML1 agonist: 6.6; D2 ag: -4.8; PINK1 modulator: -1.2%; D2 potentiator: -15.1; CtBP-E1A inh: 0.0; Six1-Eya2 blk: 17.1

What do the screens show for `CNc1c(NS(=O)(=O)c2ccc(Cl)s2)c(=O)oc2ccccc12`?
TRPML1 agonist: -0.8; D2 ag: -1.5; PINK1 modulator: 3.9%; D2 potentiator: -4.0; CtBP-E1A inh: 12.7; Six1-Eya2 blk: 4.0

Bioassay records as filed in PubChem.

Rows are unselected; any-hit rate near 1.3%.
